Tg IFNy HTS: T. gondii growth inhibition with IFN-gamma, primary screen, cell-based | Toxoplasma gondii growth in IFN-gamma-treated host cells; hits give low values; reference of the scale not given here | activity change, negative = inhibition, %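 (about 20 µM by stock and volumes)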 | 69,000 compounds, 3.8% hits;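 active = below -70%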;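 note: host cells are HeLa cells infected with Toxoplasma gondii; parasite growth read as luciferase light; one replicate is shown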
Starred values were filed as active, the others as inactive; i = inactive; & = joins results of further samples. Some of the compounds tested; rates above refer to the full screens.

Compound	Tg IFNy HTS
CC(C)CN1C(=O)N(C)C2(CCN(CC(C)Cc3ccc4c(c3)OCO4)CC2)C1=O (stereo unspecified)	-2
Fc1cnc(N2CCO[C@@H]3[C@H]2CC[C@H]3OCc2ccccn2)nc1	1
COCC1CN(Cc2csc(C)n2)Cc2nnn(C)c21 (stereo unspecified)	2
O=C(CCN1Cc2ccccc2C1)N1CCOC2(CNCCOC2)C1 (stereo unspecified)	2
COc1ccccc1CN1CC[C@@H](OCc2ccccn2)[C@@H]2OCC[C@H]21	-4
CN(C)S(=O)(=O)c1ccc2c(c1)cc(C(=O)NCCCN1CCCC1)n2C	-14
CC(C)c1nc(C2(S(=O)(=O)c3ccccc3)CC2)n(-c2ccccn2)n1	-2
CCOc1ccc(CNC(=O)Cn2ncc3c(N4CCOCC4)ncnc32)cc1OCC	-7
CCOc1ccc(CNS(=O)(=O)c2cc3c4c(c2)CCN4C(=O)CC3)cc1	36
CCS(=O)(=O)N1CCC2(CC1)OC(=O)C(C)=C2C(=O)NCCN(C)C	9
O=C(CCC1N=C2c3ccccc3N=C(SCc3cc(=O)n4cc(Cl)ccc4n3)N2C1=O)NC1CCCCC1 (stereo unspecified)	11
C[C@H]1CN([C@@H](C)CO)C(=O)c2cccc(NC(=O)Nc3ccc(C(F)(F)F)cc3)c2O[C@H]1CN(C)S(=O)(=O)c1cn(C)cn1	8
COc1ccc2c3c([nH]c2c1)[C@H](CO)N(C(C)=O)CC31CCN(C(=O)c2ccc3c(c2)OCO3)CC1	-13
O=C(c1ccc(Br)cc1)N1CCc2c([nH]c3ccccc23)C1c1ccccc1 (stereo unspecified)	-48
CCN(Cc1ccncc1)C(=O)C(CO)c1ccccc1 (stereo unspecified)	11&19
Cc1cc2ncn(S(=O)(=O)N3CCOCC3)c2cc1C	-14
CCCNC(=O)N1CC2(CCN(C(=O)c3cccc(F)c3)CC2)c2c([nH]c3cc(OC)ccc23)[C@H]1CO	-24
CC(C)N1CCOCC2(CCCN(C(=O)c3cc4ccccc4[nH]3)C2)C1 (stereo unspecified)	1
CCS(=O)(=O)Nc1ccc2c(c1)C(=O)N(C)[C@@H]1CC[C@H](CC(=O)N[C@@H]3CCN(Cc4ccccc4)C3)O[C@H]1CO2	6
C/C=C/c1ccc([C@H]2[C@H](CO)N3C(=O)CN(C(=O)Nc4ccc(F)cc4)C[C@@H]23)cc1	1
CNC[C@@H]1Oc2ccc(NS(=O)(=O)c3ccc(OC)cc3)cc2C(=O)N([C@@H](C)CO)C[C@@H]1C	-53
CCCc1ccc(C(=O)NC(C)CC2=CCCN(C)C2)cc1 (stereo unspecified)	1
COc1ccc(-c2nnc(-c3nc(Nc4ccc(F)c(F)c4)c4ccccc4n3)o2)cc1	58
C[C@@H](CN1CC(=O)NC(=O)C1)N1CC(=O)NC(=O)C1	-44
OC1(c2cccc(C(F)(F)F)c2)CCN(CC2CCOC2)CC1 (stereo unspecified)	-9
Cc1ccc(C)c(NC(=O)c2c3c(nc4ccccc24)CCCC3)c1	-37
CCCS(=O)(=O)N1CC[C@@]2(C[C@H](N3CCCC3=O)CCO2)C1	-1
COc1nc2ccc(Br)cc2cc1[C@@H](c1ccccc1)[C@@](O)(CCN(C)C)c1cccc2ccccc12	34
COc1cccc(-c2ccccc2[C@H]2[C@@H](CO)N(C(=O)Nc3ccc(F)cc3)[C@H]2C#N)c1	-39
Cc1ccc(F)c(NC(=O)CCC(=O)NCCN(C)S(C)(=O)=O)c1	-7
O=C(Nc1cccc(C(F)(F)F)c1)N1CCC2(CC1)Nc1ccccc1-n1cccc12	474
CCS(=O)(=O)N1CCn2c(COc3cccnc3)cnc2C1C (stereo unspecified)	5
Cc1ncsc1CCN(C)C(=O)[C@H]1Cc2ccccc2CN1	1
CN1CCN(c2cccc(Nc3nc4c(-c5ccc(S(C)(=O)=O)cc5)cccn4n3)c2)CC1	17
CCOC(=O)C1=NN(c2ccccc2)C2(C(=O)c3ccccc3C2=O)C1c1ccc(C)cc1 (stereo unspecified)	50
COc1ccccc1S(=O)(=O)N[C@@H]1C[C@@H](CO)N(C)C1	-7
CCOC(=O)C1CCCN(c2nc(-c3ccc(OC)cc3)nc3ccccc23)C1 (stereo unspecified)	-18
CC(=O)N1CCC2(CC1)CC(NC(=O)c1cccn1C)c1ccccc1O2 (stereo unspecified)	0
Cc1oc(C2CCN(C(=O)Cc3cccs3)CC2)nc1C(=O)N1CCSCC1	-4
CS(=O)(=O)N1CCC2(CCOCC2COc2cccnc2)CC1 (stereo unspecified)	-7
C[C@H](CO)N1C[C@H](C)[C@@H](CN(C)Cc2ccc(C(=O)O)cc2)OCCCC[C@H](C)Oc2ccc(N(C)C)cc2C1=O	76
CN(Cc1cnc2c(-c3ccccc3)cnn2c1)Cc1noc2c1CCCC2	50
O=C1CN(CC(=O)Nc2ccc(OCc3ccccc3F)cc2)CCN1	25
CS(=O)(=O)NC1CCN(C(=O)c2cn(-c3ccccc3)nn2)CC1	6
COc1ccc(Cl)cc1S(=O)(=O)N1CCc2nc(-c3ccc(C)cc3)sc2C1	-63
COCCC(=O)c1nc2c(o1)CN(CC1CC1)C2	69
CC(=O)N(CC(=O)Nc1ccc(C)cc1)c1ccccc1	7
CCS(=O)(=O)N1CCCCN2[C@H](C1)[C@@H](c1ccc(C#Cc3ccccn3)cc1)[C@@H]2CO	-4
COc1ccc(-c2nc(CN(Cc3ccccn3)CC3CCCO3)c(C)o2)c2ccccc12 (stereo unspecified)	5
COc1cccc(NC(=O)C(=O)NCCc2sc(-c3ccccc3)nc2C)c1	443
Cc1noc(C)c1S(=O)(=O)N(C)C[C@H]1Oc2c(NC(=O)c3ccc(-c4nccs4)cc3)cccc2C(=O)N([C@@H](C)CO)C[C@H]1C	-66
COCC(=O)N1CCC2(CC1)CN[C@@H](CO)c1c2c2ccc(OC)cc2n1C	11
Cc1cc(CN(C)Cc2nc3ccccc3n2C(C)c2ccccc2)n[nH]1 (stereo unspecified)	-79*
N[C@@H]1CCCN(Cc2ccncc2)[C@H]1c1ccccc1F	0
CN(CC1OCCc2ccccc21)C(=O)C(c1ccc(F)cc1)N(C)C (stereo unspecified)	0
Cc1cc(C)cc(NC(=O)CC(=O)N[C@@H]2C[C@H]3C(=O)N(C)CC(=O)N3C2)c1	81
C=CCO[C@H]1CN(C(=O)Cc2ccsc2)[C@H]2COC[C@@H]12	35
CN1CC(c2cc(N(C)C)nc(C3CCN(S(=O)(=O)c4ccccc4)CC3)n2)CC1=O (stereo unspecified)	16
COc1ccc(-c2cc3c(n(C)c2=O)CCN(C(=O)CCc2c(C)noc2C)C3)c2ccc(C)nc12	-3
O=C1CN(S(=O)(=O)c2cccc(F)c2)C[C@@H]2[C@@H](c3ccc(C4=CCCC4)cc3)[C@H](CO)N12	-29

4 entries from above, set out differently:
SMILES: COc1ccc(Cl)cc1S(=O)(=O)N1CCc2nc(-c3ccc(C)cc3)sc2C1
  Tg IFNy HTS = -63

SMILES: CN1CC(c2cc(N(C)C)nc(C3CCN(S(=O)(=O)c4ccccc4)CC3)n2)CC1=O (stereo unspecified)
  Tg IFNy HTS = 16

SMILES: Cc1noc(C)c1S(=O)(=O)N(C)C[C@H]1Oc2c(NC(=O)c3ccc(-c4nccs4)cc3)cccc2C(=O)N([C@@H](C)CO)C[C@H]1C
  Tg IFNy HTS = -66

SMILES: CN(CC1OCCc2ccccc21)C(=O)C(c1ccc(F)cc1)N(C)C (stereo unspecified)
  Tg IFNy HTS = 0

The listing continues.
Compound	Tg IFNy HTS
COc1cccc(C(N)c2ccccc2)c1 (stereo unspecified)	42
C[C@H]1CN([C@@H](C)CO)C(=O)c2ccccc2-c2ccccc2CO[C@@H]1CN(C)S(=O)(=O)c1cccs1	-2
CC(C)Cn1nc(C(=O)O)c2c1CCN(C(=O)c1ccc3c(c1)OCCN3C)C2	3
Clc1ccc2c(N3CCCNCC3)ccnc2c1	-8
CO[C@@H]1CC[C@@H]2[C@H]1OCCN2C(=O)Cc1ccc2c(c1)OCO2	27
CC(=O)N1CCc2c(nc(C)nc2NCCCSc2nnc(C)s2)C1	4
COc1cccc(NC(=O)C(=O)NCCc2sc(-c3cccc(C)c3)nc2C)c1	i
COC(=O)c1ncccc1OCc1nc(-c2sccc2C)oc1C	-5
O=C(c1cccc(Cl)c1)N1CCC2(CC1)Nc1ccc(Cl)cc1-n1cccc12	39
Cc1oc(-c2ccccc2)nc1Cn1nnc(-c2nc(-c3cccc(C(F)(F)F)c3)no2)c1C	16
Cc1c(NC(=O)c2cccs2)cccc1[N+](=O)[O-]	11
COCC(=O)N1CCCC1c1nnn2cc(-c3cccc(OC)c3)ccc12 (stereo unspecified)	-17
O=C(c1ccccc1)N1C[C@@H]2c3nc(NCC4CC4)ncc3CS(=O)(=O)[C@H]2C1	-1
Cc1ccc(NC(C)(C(=O)NCc2c(C)n[nH]c2C)c2ccccc2)cc1 (stereo unspecified)	-2
CN(C)C[C@@H]1CCC[C@@H]2CN(c3nccc(C(F)(F)F)n3)C[C@H]21	-39
CCS(=O)(=O)N1CCOC2(COCCN(c3cncnc3)C2)C1 (stereo unspecified)	3
C[C@@H](NC(=O)C[C@@H]1C=C[C@H](NC(=O)c2cccnc2)[C@@H](CO)O1)c1ccccc1	-54
O=C(O)c1cccnc1CN1CCCCC1CCc1cccc(O)c1 (stereo unspecified)	-15
COc1ccccc1CNc1nc(-c2nnc(-c3ccc(C)cc3)o2)nc2ccccc12	301
CCN(Cc1cnn(C)c1)C(=O)c1cc(Cn2ccnc2C(C)C)[nH]n1	6
CCc1c(C)sc2c1CCN(Cc1nc(-c3ccc(Cl)cc3)oc1C)C2c1ccccc1 (stereo unspecified)	-25
Cn1nc(C2CCCN(C(=O)CCc3cccnc3)C2)n(-c2ccccc2)c1=O (stereo unspecified)	3
OCCNCC12CC3CC(CC(C3)C1)C2	43
COc1ccc(CCCC(=O)N2CCCC2c2[nH]ncc2-c2ccncc2)cc1C (stereo unspecified)	-21
Cc1cc(F)ccc1NC(=O)c1c(O)c2cccnc2n(-c2ccc(F)cc2)c1=O	-12
CC(c1ccc(-c2cc(C(=O)NC3CC3)ccn2)cc1)N1CCOCC1 (stereo unspecified)	2
CN(Cc1ccccc1)c1ncccc1CNC(=O)[C@H]1CCCN1	0
CCn1ncnc1C1CC(=O)Nc2cc3c(cc21)N(C)C(=O)CO3 (stereo unspecified)	-2
C=CCn1c(=O)c(C(=O)NCc2cccs2)c(O)c2ccccc21	355
COc1ccc(S(=O)(=O)Nc2cncc(C(=O)Nc3cccc(C)c3)c2)cc1OC	53
CCOC(=O)C(N)C(O)c1ccccc1 (stereo unspecified)	12
O=C(c1ccccc1)c1cnc2ccccn2c1=O	1
CCOc1ccccc1C(=O)NC(NCCc1ccccc1)(C(F)(F)F)C(F)(F)F	-67
Cc1ccc(CN2CC[C@@H]3C[C@@H](C(=O)N4CCCCO4)O[C@@H]3C2)o1	0
COCC(=O)N1Cc2cnn(C)c2C(COCC2CC2)C1 (stereo unspecified)	-2
c1ccc(-c2nc3c(c(NCC4CNCCOC4)n2)CCC3)cc1 (stereo unspecified)	-9
Clc1ccc(Oc2nc3ccccc3n3cnnc23)cc1	15
CN(CCCc1cnn(C)c1)C(=O)C1(C)CCCCO1 (stereo unspecified)	-10
Cc1ccc(C)c(NC(=O)CCNC2CCN(C(=O)c3ccccc3)CC2)c1	88
CCc1noc(CC)c1C(=O)Nc1nc(CS(=O)(=O)c2ccc(C)cc2)cs1	-66

Compounds above containing a COOH group (3):
Compound	Tg IFNy HTS
C[C@H](CO)N1C[C@H](C)[C@@H](CN(C)Cc2ccc(C(=O)O)cc2)OCCCC[C@H](C)Oc2ccc(N(C)C)cc2C1=O	76
CC(C)Cn1nc(C(=O)O)c2c1CCN(C(=O)c1ccc3c(c1)OCCN3C)C2	3
O=C(O)c1cccnc1CN1CCCCC1CCc1cccc(O)c1 (stereo unspecified)	-15

(continued)
Compound	Tg IFNy HTS
Cc1ccc(C(=O)N2CCCC3(C2)Nc2cccnc2NC3=NC2CCCC2)s1 (stereo unspecified)	40
CC1=NN(c2ccc(Cl)cc2)C(=O)C1CCO (stereo unspecified)	32
Cc1cc(C)c2c(CC(=O)NCC3CCC(c4nnc(-c5cnccn5)o4)CC3)coc2c1 (stereo unspecified)	-5
COc1cccc(C2c3nc[nH]c3CCN2Cc2ccnc3ccccc23)c1 (stereo unspecified)	5
C[C@@H](NC(=O)C[C@H]1CC[C@H]2[C@@H](COC[C@@H](O)CN2C(=O)Nc2cccc(Cl)c2)O1)c1ccccc1	-54
C=CCn1c(C(=O)N2CCN(c3ccccn3)CC2)cc2cc(S(=O)(=O)N(C)C)ccc21	-12
C[C@@H]1CCCCO[C@H](CN(C)C(=O)Nc2ccc(C(F)(F)F)cc2)[C@@H](C)CN([C@H](C)CO)C(=O)c2cc(NS(=O)(=O)c3cn(C)cn3)ccc2O1	66
Cc1oc(-c2ccc(NC(=O)/C=C/c3ccccc3)cc2)nc1Cn1cccn1	-87*
CCCn1ncc(C(=O)N2CCC(c3nc(C)c(C(C)=O)s3)CC2)c1C	11
CCS(=O)(=O)c1cccc(-c2cc(C(=O)NC3CCN(C)CC3)c(C)c3[nH]c4ncc(C)cc4c23)c1	-80*
Cc1ccc(F)cc1NC(=O)c1nnn(Cc2nc(-c3cccc(Cl)c3)oc2C)c1C	39
Cc1ccc(NC(=O)NCC2CCCN(Cc3ccncc3)C2)cc1 (stereo unspecified)	10
COCCN1C(=O)CC[C@H]2[C@H]1CCN2C(=O)c1ccccn1	10
